Compound activity as filed in PubChem.
PV pol inh: poliovirus RNA polymerase inhibition; 150,000 tested, 0.66% active; poliovirus polymerase elongation, fluorescence polarization; stronger effect = lower value; AID 588519; % elongation, % (compound at 16.7 µg/mL); P03300; in the data active = % elongation below about 90%; note: some results filed as inactive read as strong as hits
MbtI inh: MbtI salicylate synthase inhibition; purified MbtI enzyme, fluorescence intensity read-out; inhibition, %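 (about 17 µg/mL by stock and volumes)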; 100,000 tested, 0.89% active;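 active = above 50% in both replicates, above 80% if mildly self-fluorescent; inactive = the rest, strongly fluorescent compounds included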;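 note: 0% = mean of negative and 100% = mean of positive controls; one replicate is shown; some compounds called inactive have numbers as strong as hits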
Target sequence (P9WFX0 whole entry, looked up): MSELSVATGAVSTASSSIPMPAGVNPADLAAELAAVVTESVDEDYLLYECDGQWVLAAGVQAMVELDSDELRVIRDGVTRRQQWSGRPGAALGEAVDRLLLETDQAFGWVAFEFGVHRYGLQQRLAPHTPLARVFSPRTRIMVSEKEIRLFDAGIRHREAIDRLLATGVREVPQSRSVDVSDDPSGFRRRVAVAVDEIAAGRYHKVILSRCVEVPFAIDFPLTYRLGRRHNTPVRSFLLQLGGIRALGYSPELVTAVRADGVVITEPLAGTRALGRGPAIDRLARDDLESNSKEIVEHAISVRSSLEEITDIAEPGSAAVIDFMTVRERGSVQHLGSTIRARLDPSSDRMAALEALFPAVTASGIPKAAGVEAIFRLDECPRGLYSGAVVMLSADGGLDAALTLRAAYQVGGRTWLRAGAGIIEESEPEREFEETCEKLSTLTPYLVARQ
MenB inh: blocks the Mycobacterium tuberculosis MenB enzyme | MenB enzyme assay, absorbance read-out; some hits fall short of the stated cut | inhibition, %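 (about 12 µg/mL by stock and volumes)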 | 100,000 tested, 0.43% active | AID 540299;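 active = mean of two replicates above 30%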;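 note: 0% = no compound and 100% = wells with inactive enzyme; the first replicate is given; strong numbers were not always called active; inactives centre near -10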
Target sequence (P9WNP5 whole entry, looked up): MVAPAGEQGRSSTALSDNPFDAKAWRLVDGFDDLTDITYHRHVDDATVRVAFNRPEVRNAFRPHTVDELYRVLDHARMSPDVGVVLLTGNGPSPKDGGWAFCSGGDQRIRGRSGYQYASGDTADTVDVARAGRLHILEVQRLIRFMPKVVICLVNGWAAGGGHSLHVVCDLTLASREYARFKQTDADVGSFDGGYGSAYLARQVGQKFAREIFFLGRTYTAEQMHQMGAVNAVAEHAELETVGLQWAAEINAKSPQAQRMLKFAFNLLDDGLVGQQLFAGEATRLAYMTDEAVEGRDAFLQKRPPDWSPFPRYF
PV pol inh intensity: second read-out of PV pol inh, no call of its own (marks repeat the call); % elongation; measured here: total intensity read-out; formula for this scale not given here;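 total fluorescence in place of polarization; lower means less elongation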
Active calls of the source: *; / = not tested or not shown; & = joins results of further samples.

SMILES | PV pol inh | PV pol inh intensity | MbtI inh | MenB inh
COc1ccccc1N(C)C(=O)CCS(=O)(=O)c1ccc2c(c1)OCC(=O)N2 | 104 | 107 | -12 | -30
NC(=O)COC(=O)c1cccc(S(=O)(=O)N2CCc3ccccc3C2)c1 | 103 | 102 | -2 | -14
COc1ccc(NC(=O)OCC(F)(F)F)cc1 | 103 | 103 | -15 | 13
CC(=O)Nc1ccc(SC(C)C(=O)NC(N)=O)cc1 (configuration not stated) | 108 | 114 | 56 | -13
CC(C)(C)C(=O)C[n+]1ccc(C(N)=O)cc1 | 99 | 97 | -3 | -10
O=C(O)c1ccccc1-c1nn[nH]n1 | 98 | 100 | / | -6
CC(C)(C)Cc1ccc(OCCCC(=O)O)c(CC(C)(C)C)c1 | 107 | 96 | / | -19
CCC(C)NC(=O)CC(c1ccc(OC)cc1)n1cccc1 (configuration not stated) | 101 | 104 | 18 | -1
Cc1cc(NC(=O)c2cccc(F)c2)ccc1NC(=O)c1ccco1 | 106 | 100 | 1 | -51
Brc1ccc(-c2nnc(CC34CC5CC(CC(C5)C3)C4)o2)cc1 | 101 | 98 | 5 | 13
S=C(NCCc1ccccc1)N1CCN(c2ncccn2)CC1 | 100 | 102 | -4 | -25
CC1=C(C(=O)Nn2cnc3cccc(F)c3c2=N)Sc2ccccc2N1 | 102 | 102 | 3 | -7
O=c1[nH]cnc2c1sc1nc(-c3ccccc3)cc(-c3ccccc3)c12 | 109 | 110 | / | -7
COc1cccc(-n2c(=S)sc3c(=O)n4[nH]c(=O)c5ccccc5c4nc32)c1 | 96 | 95 | 94 | -24
CCn1c(=O)c2cc(C(=O)N3CCN(Cc4ccccc4)CC3)sc2c2ccccc21 | 105 | 102 | 10 | -2
CCn1cnc2cc(NC(=O)COc3ccccc3)ccc21 | 104 | 99 | -8 | -52
O=C(OCC1CCCN2CCCCC12)c1ccccc1O (configuration not stated) | 106 | 113 | / | -1
CCc1ccc2nc(NC(=O)Cc3csc(NC(=O)c4ccco4)n3)sc2c1 | 115 | 125 | 3 | -4
C=CCN1C(=O)NC(=O)/C(=C\c2ccccc2)C1=O | 99 | 101 | -18 | -119
COCCNC(=O)C1CCN(C(=O)C(C)(C)C)CC1 | 98 | 103 | -2 | -14
Cc1cc(=O)oc2c(CN(C)C)c(O)ccc12 | 98 | 103 | / | -15
O=c1oc2ccccc2n1Cn1c(=O)oc2ccccc21 | 104 | 105 | / | -2
CCn1c(SC(C)C(=O)c2ccc(Br)cc2)nnc1-c1cccs1 (configuration not stated) | 103 | 95 | 43 | -7
CCC(=O)Oc1ccc2c3c(c(=O)oc2c1)CCC3 | 108 | 97 | / | -6
O=C(c1ccccc1)N1CCN(c2ccc(NCc3ccc4c(c3)OCO4)cc2)CC1 | 101 | 102 | -4 | -24

Next part, overlapping the part above by 2 compounds.
SMILES | PV pol inh | PV pol inh intensity | MbtI inh | MenB inh
CCC(=O)Oc1ccc2c3c(c(=O)oc2c1)CCC3 | 108 | 97 | / | -6
O=C(c1ccccc1)N1CCN(c2ccc(NCc3ccc4c(c3)OCO4)cc2)CC1 | 101 | 102 | -4 | -24
O=C(O)c1cccc(S(=O)(=O)Nc2ccccn2)c1 | 101 | 101 | -2 | -9
Cc1cn2c(=O)c(C(=O)N3CCN(C(c4ccccc4)c4ccccc4)CC3)cnc2s1 | 103 | 105 | 7 | -17
O=c1c(CNc2ccccc2)cc2cccc3c2n1CCC3 | 103 | 105 | 5 | -37
O=C(NC1CCCCCC1)C1=NN(C2CCS(=O)(=O)C2)C(=O)CC1 (configuration not stated) | 108 | 109 | -17 | -21
O=C(NCCc1ccccc1)c1noc2c1CCc1ccccc1-2 | 101 | 101 | 13 | -27
N#CC(C#N)=Cc1ccc(-c2ccc3c(c2)COC3=O)o1 | 101 | 109 | 49 | -61
CSc1nc2c(c(=O)[nH]1)C(c1cc(C)ccc1C)CC(=O)N2 (configuration not stated) | 99 | 103 | -6 | 11
O=C(CNCCc1ccc(F)cc1)N1N=C(c2ccc(Cl)cc2)CC1c1ccco1 (configuration not stated) | 96 | 91 | -7 | -17
Cc1ccccc1-n1c(=S)[nH]c2nc3c(cc2c1=O)CCCC3 | 104 | 109 | 11 | -2
CCN(CC)Cc1nc2ccccc2n1C | 102 | 102 | -17 | -20
O=C1CS/C(=N/N=C/c2ccccc2O)N1 | 110 | 110 | -15 | -56
Cc1ccc2c(=O)c(C(=O)c3cccc(Cl)c3)cn(CC(=O)NCC3CCCO3)c2n1 (configuration not stated) | 101 | 104 | -17 | 3
O=C1NCCCc2nc(Oc3ccccc3)sc21 | 107 | 111 | / | -9
COC(=O)c1ccc(NC(=O)Nc2ccc(C)cc2)cc1 | 100 | 102 | -313 | -10
O=S(=O)(Nc1ccc2c(c1)OCO2)c1ccc2ccccc2c1 | / | / | -2 | -20
COc1ccc(C(=O)c2sc3nc(-c4cccs4)cc(-c4cccs4)c3c2N)cc1 | 46 | 258 | / | -6
Cc1cccc(-c2nc(-c3ccc(N4CCN(c5ccc(C(F)(F)F)cn5)CC4)nc3)no2)c1 | 102 | 102 | -69 | -13
CN(C(=O)c1ccc(S(=O)(=O)N2CCCC2)cc1)C1CCCCC1 | 101 | 104 | -3 | /
NNc1nc(-c2ccccc2)c2cc(Br)ccc2n1 | 107 | 114 | 15 | -14
N#Cc1c(-c2ccc(F)cc2)cc(-c2ccco2)nc1SCC(=O)Oc1ccccc1 | 43 | 245 | / | 0
CCOc1nc(C)c(CC(=O)O)c(OCC)n1 | 104 | 104 | -3 | -24
Cc1c(NC(=O)CC(O)(C(F)(F)F)C(F)(F)F)c(=O)n(-c2ccccc2)n1C | 100 | 103 | -15 | 8
O=C(Nc1ccccc1)N1CCN(S(=O)(=O)c2ccccc2)CC1 | 100 | 102 | -3 | -10
Cc1cc(SCC(=O)NC(=O)NCc2ccco2)nc2c(C)cccc12 | 103 | 99 | 93 | -3
N#CC(C(=O)N1CCCC1)C(=S)Nc1cccc(C(F)(F)F)c1 (configuration not stated) | 98 | 95 | 22 | -5

(more compounds)
SMILES | PV pol inh | PV pol inh intensity | MbtI inh | MenB inh
CCCCC/C=C\C[C@@H](/C=C/C=C\C/C=C\CCCC(=O)O)OO | 99&99 | 102&101 | -2 | 11
CC(C)n1c(NN)nc2ccccc21 | 102 | 99 | -2 | /
CC(C(=O)OCn1nnc2ccccc2c1=O)N1C(=O)c2ccccc2C1=O (configuration not stated) | 103 | 103 | 8 | -24
CN(CC(=O)O)S(=O)(=O)c1ccc(Oc2ccccc2)cc1 | 100 | 102 | -7 | 8
O=C(Cc1ccccc1)Nc1c(C(=O)N2CCCCC2)cnn1-c1ccccc1 | 103 | 107 | / | -17
CC(C)n1nccc1C(=O)O | 101 | 103 | -5 | 21
Cc1cc(C)cc(-n2c(CCC(=O)O)ccc2-c2cccs2)c1 | 102 | 106 | 39 | 2
Cc1cc2c(s1)CCc1cc(C(=O)O)sc1-2 | 101 | 105 | 117 | -4
O=C1NC2(CCCCC2)N(C(=O)COc2ccc(Cl)cc2)C2=C1CCCC2 | / | / | -10 | 2
N#Cc1ccccc1NC(=O)CNC12CC3CC(CC(C3)C1)C2 | 98 | 95 | 0 | -2
COc1cccc(NC(=O)CCCOc2cc(=O)n(C)c3ccccc23)c1 | 100 | 103 | -8 | -15
CN(CC(=O)N1CC=C(c2ccccc2)CC1)S(=O)(=O)c1cnc[nH]1 | 102 | 100 | 7 | -2
CSc1nc2c(c(-c3ccccc3)c1C#N)C(=O)CC(C)(C)C2 | 105 | 106 | -8 | /
CS(=O)(=O)Nc1ccc(C(=O)Nc2ccccc2)cc1 | 100 | 98 | -1 | -6
O=C(CSc1ccccn1)NCc1ccccc1 | 110 | 103 | / | -16
COc1ccccc1-c1nnc(C2CCN(S(=O)(=O)c3ccc(Cl)s3)CC2)o1 | 99 | 102 | 7 | -1
Brc1ccc2c(c1)c1ccccc1n2CN1CCCCC1 | 106 | 102 | 8 | -4
O=C(/C=C/c1ccc(Br)o1)OCc1ccccc1 | 102 | 107 | -4 | /
CC1(C)CSC(=NCc2ccccc2)N1C(=O)Cn1[nH]c(=O)c2ccccc2c1=O | 95 | 103 | -13 | -42
O=C(OCn1nnc2ccccc2c1=O)C1COc2ccccc2O1 (configuration not stated) | 100 | 108 | 58* | -22
N/C(=N\N=C1CCCCCC1)SCn1nnc2ccccc2c1=O | 90* | 95* | 34 | -15
Nc1nonc1-c1ccccc1 | 99 | 99 | 1 | -12
CSc1ccccc1NS(=O)(=O)c1cccs1 | 99 | 104 | 0 | 6
CCCc1c(-c2ccccc2)nc2sc3c(c2c1N)CCCCC3 | 104 | 97 | 37 | -1
CC1=C(CCN2CCN(C)CC2)C(C)(C)CCC1 | 100 | 99 | -5 | 0

An excerpt from above, limited to MbtI inh and PV pol inh intensity.
SMILES,MbtI inh,PV pol inh intensity
Nc1nonc1-c1ccccc1,1,99
CSc1ccccc1NS(=O)(=O)c1cccs1,0,104
CCCc1c(-c2ccccc2)nc2sc3c(c2c1N)CCCCC3,37,97

Other entries
SMILES | PV pol inh | PV pol inh intensity | MbtI inh | MenB inh
CC(=O)NC(=O)/C(C#N)=C/Nc1ccc(F)c(Cl)c1 | 104 | 102 | 6 | -6
COCN(C#N)c1nc(N(C)C)nc(N(C)C)n1 | 103 | 105 | 4 | -37
COc1ccc(NCc2nc(-c3ccccc3)no2)cc1OC | 100 | 97 | -6 | 0
COC(=O)/C(=C\c1c[nH]c2ccccc12)NC(C)=O | 102 | 101 | 11 | 5
CCOC(=O)c1nn(-c2ccccc2)c(=N)c(C#N)c1C | 57 | 248 | -1 | -3
Cc1ccc(C(=O)c2cccs2)s1 | 101 | 103 | / | -2
O=C1CCC2(CC1)OCCO2 | 102 | 96 | 2 | 16
CCOC(=O)N1CCN(C(=O)CCCN2C(=O)/C(=C\c3cccs3)SC2=S)CC1 | 102 | 110 | 0 | -50
O=C(Cc1cccs1)Nc1cccc(-c2nnc(-c3ccco3)o2)c1 | 97 | 97 | / | -34
Cc1onc(-c2ccccc2)c1C(=O)Nc1ccc(S(=O)(=O)Nc2ncccn2)cc1 | 103 | 103 | 1 | -3
CCCc1c(C)c2ccccc2[nH]c1=O | 101 | 103 | -55 | 2
CN1/C(=C\C(=O)COC(=O)C2CC3CCCC(C2)C3=O)C(C)(C)c2ccccc21 (configuration not stated) | 124 | 134 | 13 | -14
N#CN=C(c1ccccc1)c1ccccc1 | 103 | 101 | 9 | -14
Cc1ccsc1C(=O)N1CC(C)OC(C)C1 (configuration not stated) | 103 | 107 | -10 | 0
O=C(NC1CCCCCC1)c1cc2c(s1)CS(=O)(=O)C2 | 101 | 103 | 6 | -23
O=S(=O)(Nc1cccc(F)c1)c1ccccc1 | 104 | 99 | -2 | -78
COCC(C)NC(=O)c1ccc(NC(C)=O)cc1 (configuration not stated) | 110 | 107 | / | 4
CC(C)Cc1ccc(C(C)C(=O)NCCc2c[nH]c3ccccc23)cc1 (configuration not stated) | 108 | 104 | / | -27
COc1ccc(-n2nc(C(F)(F)F)cc2-c2cccs2)cc1 | 102 | 108 | 10 | 23
CNC(=O)c1cc2cc(OC)ccc2oc1=N | 102 | 102 | -33 | -60
CC1=Nc2ccc(Br)cc2C(c2ccccc2)N1CC(=O)O (configuration not stated) | 101 | 104 | 5 | 2
O=C(/C=C/c1ccccc1)/C=C/c1ccccc1 | 102 | 103 | 10 | 0
CCC1C(c2ccccc2)NC(c2ccccc2)CC1(O)c1ccc(F)cc1 (configuration not stated) | 104 | 105 | -2 | -26
Cn1c2ccccc2c2cnn(CC(=O)NCc3ccccc3)c(=O)c21 | 99 | 104 | 8 | -8
c1ccc2cc(OCCN3CCCCC3)ccc2c1 | 100 | 104 | -21 | -2

(cont.)
SMILES | PV pol inh | PV pol inh intensity | MbtI inh | MenB inh
N#Cc1oc2ccccc2c1NC(=O)COC(=O)CSc1ccc2ccccc2c1 | 96 | 109 | -4 | -23
O=C(O)CN1C(=O)CC(Cc2ccc(Cl)cc2)C1=O (configuration not stated) | 102 | 107 | 2 | -2
CCOc1cc(Cl)c(Cl)c2cc(C(=O)NC)c(=O)oc12 | 100 | 99 | -5 | -4
CNC(=O)c1sc(CN2C(=O)c3ccccc3S2(=O)=O)nc1C | 65* | 72* | 92* | 6
CN(CC(=O)Nc1ccc(N2CCOCC2)cc1)CC(=O)Nc1ccccc1C(=O)c1ccccc1 | 108 | 110 | 18 | -19
FC(F)(F)c1n[nH]c(=S)n1/N=C/c1ccc(Cl)cc1 | 99 | 100 | / | -20
O=C(c1ccccc1)N1CCN(CC#CC2(O)CCCCC2)CC1 | 108 | 115 | / | 6
CCCCN1C(=O)SC(Nc2cccc(C)c2)C1=O (configuration not stated) | / | / | -5 | -9
C=CCn1c(SC(C)C(N)=O)nc2ccc(Cl)cc2c1=O (configuration not stated) | 101 | 102 | -3 | 10
O=C1/C(=C\c2ccccn2)Cc2ccccc21 | 102 | 106 | 44 | -12

Some of these compounds in order of count of non-hydrogen atoms, highest first:
SMILES | PV pol inh | PV pol inh intensity | MbtI inh | MenB inh
O=C(CNCCc1ccc(F)cc1)N1N=C(c2ccc(Cl)cc2)CC1c1ccco1 (configuration not stated) | 96 | 91 | -7 | -17
COc1ccccc1-c1nnc(C2CCN(S(=O)(=O)c3ccc(Cl)s3)CC2)o1 | 99 | 102 | 7 | -1
CC1=Nc2ccc(Br)cc2C(c2ccccc2)N1CC(=O)O (configuration not stated) | 101 | 104 | 5 | 2
CS(=O)(=O)Nc1ccc(C(=O)Nc2ccccc2)cc1 | 100 | 98 | -1 | -6
O=C(O)c1cccc(S(=O)(=O)Nc2ccccn2)c1 | 101 | 101 | -2 | -9
COCN(C#N)c1nc(N(C)C)nc(N(C)C)n1 | 103 | 105 | 4 | -37
CC(C)n1nccc1C(=O)O | 101 | 103 | -5 | 21
